Source: PubChem BioAssay
TRPV1 PAM: human TRPV1 potentiation | hit rate 0.02% among 320,000 | Q8NER1 | TRPV1-expressing cells, Fluo-8 calcium influx, capsaicin EC20 potentiation; host cell line not named in the record; control for the full effect not named in the record | potentiation, % at 8.33 µM; active means potentiation above 80%; inconclusive means 30% to 80%; inactive means below 30%; note: 0% is about no effect
Target sequence (Q8NER1 whole entry, looked up): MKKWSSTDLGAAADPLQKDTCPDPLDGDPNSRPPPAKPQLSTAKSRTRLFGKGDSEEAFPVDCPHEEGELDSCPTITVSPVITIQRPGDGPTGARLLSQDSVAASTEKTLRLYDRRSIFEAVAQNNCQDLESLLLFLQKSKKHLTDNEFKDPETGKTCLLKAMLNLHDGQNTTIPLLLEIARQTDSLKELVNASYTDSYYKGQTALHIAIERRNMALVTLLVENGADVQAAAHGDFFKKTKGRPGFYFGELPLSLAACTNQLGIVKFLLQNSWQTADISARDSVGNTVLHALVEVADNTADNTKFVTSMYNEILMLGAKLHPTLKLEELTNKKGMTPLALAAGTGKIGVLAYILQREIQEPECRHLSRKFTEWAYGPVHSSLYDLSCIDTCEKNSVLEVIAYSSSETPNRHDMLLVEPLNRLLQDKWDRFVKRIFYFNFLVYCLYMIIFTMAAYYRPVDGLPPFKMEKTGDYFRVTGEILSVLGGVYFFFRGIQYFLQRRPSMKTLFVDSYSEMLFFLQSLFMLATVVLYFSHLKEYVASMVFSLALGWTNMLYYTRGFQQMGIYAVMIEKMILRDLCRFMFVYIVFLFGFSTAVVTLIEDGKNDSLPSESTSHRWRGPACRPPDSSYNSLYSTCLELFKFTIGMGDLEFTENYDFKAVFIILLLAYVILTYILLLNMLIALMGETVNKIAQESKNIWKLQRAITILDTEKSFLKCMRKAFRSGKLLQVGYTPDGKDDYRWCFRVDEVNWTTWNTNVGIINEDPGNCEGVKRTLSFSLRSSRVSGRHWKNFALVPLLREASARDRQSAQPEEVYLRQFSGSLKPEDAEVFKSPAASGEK
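Cells expressing TRPV1 were dye-loaded with Fluo-8 and read kinetically: 10 s baseline, 3 min after compound (agonist portion), then 2 min after EC20 capsaicin (allosteric enhancer portion). Calcium-bound dye fluorescence at 480/520 nm.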
CtBP-E1A blk: CtBP/E1A binding inhibition; AlphaScreen GST-E1A/His-CtBP binding, 1536-well; active compounds read low; control for the full effect not named in the record; activity change, % (test concentration not listed); hit rate 0.49% among 340,000; in the data active means activity change below about -65%; inconclusive means about -30% to -65%; inactive means above about -30%; note: % is set by controls: 0 for no effect and ±100 for the full control effect
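AlphaScreen with 125 nM GST-E1A and 125 nM His-CtBP (5X stocks) in Tris pH 8.0, 300 mM NaCl, BSA, Tween 20, TCEP. Compounds preincubated 2 h at 37 deg C, then glutathione donor/nickel acceptor beads added for 1 h at 37 deg C in dark.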
TRPML1 blocker: human mucolipin-1 channel inhibition. Q9GZU1. TRPML1-inducible cells, Ca2+ dye fluorescence, FDSS; active compounds read low; inhibition of EC80 agonist-evoked calcium signal. activity change, negative = inhibition, % (concentration not given with the values). hit rate 0.02% among 390,000; in the data active means activity change below about -50%; inconclusive means about -30% to -50%; inactive means above about -30%;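 note: stimulus is agonist 54-4 at its EC80 concentration; % is set by controls: 0 for no effect and ±100 for the full control effect; the text of the record puts the active cut at -80%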
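Tet-induced TRPML1-DL cells loaded with Ca8 no-wash calcium dye were read kinetically on FDSS. Compound addition was followed by EC80 agonist 54-4 (4 uM final); inhibition was read over 110 s.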
Six1-Eya2 inh: blocks human Six1 binding to Eya2; activity change, % (no concentration beside the values); AID 651725; Q15475+O00167; hit rate 0.56% among 360,000; AlphaScreen GST-Six1/His-Eya2 binding, biochemical; active compounds read low; control for the full effect not named in the record; in the data active = activity change below about -65%; inconclusive = about -30% to -65%; inactive = above about -30%; note: % is set by controls: 0 for no effect and ±100 for the full control effect
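GST-Six1 + His-Eya2 (5X stock: 250/500 nM); Tris pH 8.0, 300 mM NaCl, 0.05% BSA, 0.02% Tween 20; GSH donor/Ni acceptor beads; 1 h 37 °C dark; AlphaScreen readout.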
TRPML1 agonist: activates the human TRPML1 channel | activation, % (concentration not given with the values) | TRPML1-expressing cells, Ca2+ dye fluorescence, FDSS; host cell line not named in the record; reference of the full effect not given here | hit rate 0.12% among 410,000 | Q9GZU1; in the data active = activation above about 50%; inconclusive = about 30% to 50%; inactive = below about 30%; note: 0% is about no effect; the text of the record puts the active cut at 80%
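Tet-induced TRPML1-DL cells, 1,500 per well, cultured overnight, were loaded with a no-wash Ca2+ dye for 45–90 min. Calcium fluorescence was recorded on the FDSS for 110 s after compound addition, before the EC80 agonist (4 uM 54-4) was added.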
D2 potentiator: potentiates the human D2 dopamine receptor allosterically; potentiation, % (concentration not given with the values); hit rate 0.23% among 360,000; DiscoveRx D2 beta-arrestin cells, luminescence, 90 min; 100% = 57 uM dopamine signal; P14416; AID 624464; active = potentiation of 50% or more; inconclusive = 30% to 50%; inactive = 30% or less;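 note: compound concentration not given in the record; tested on top of an EC20 dose of dopamine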
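PathHunter D2 cells, attached overnight at 37 deg C, received compound in DMSO plus dopamine at EC20 (50 nM final) for 90 min at 37 deg C. Beta-arrestin recruitment was read as luminescence after 1 h with detection reagent at ambient temperature.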
Starred values were filed as active, the others as inactive; ? = inconclusive; / = no result given. An unsorted share of the library; any-hit rate near 0.95%.

SMILES	TRPV1 PAM	CtBP-E1A blk	TRPML1 blocker	Six1-Eya2 inh	TRPML1 agonist	D2 potentiator
Cc1oc2cc3oc(=O)c(CC(=O)NCCCC(=O)O)c(C)c3cc2c1C	-7	-2	5	3	0.1	4
COc1ccccc1CCC(=O)OCC(=O)NC1CCCCC1	12	0	4	6	1.0	-13
CCN1CCN(c2ccc(S(=O)(=O)N3CCCCC3)cc2NC(=O)/C=C/c2ccc(OC)c(OC)c2)CC1	-5	-14	14	-3	-0.2	-23
O=C(/C=C/c1cn(-c2ccccc2)nc1-c1cccs1)NCCN1CCOCC1	3	?	-14	?	-0.3	3
CCCCCn1c(N2CCC(C(N)=O)CC2)nc2c1c(=O)[nH]c(=O)n2C	2	7	-7	1	0.5	-9
CC1CCCN(C(=O)Nc2ccc(Br)cc2Cl)C1 (configuration not stated)	2	/	-8	5	1.2	-9
O=[N+]([O-])c1cccc(C(=S)N2CCN(c3ccccc3)CC2)c1	-13	-10	3	?	2.1	-8
N#C/C(=C/c1ccc(F)cc1)c1nc(CCN2C(=O)c3ccccc3C2=O)cs1	3	-7	-2	-1	0.0	-9
Cc1ccc(C2CC(=O)N3CN(Cc4ccco4)CSC3=C2C#N)cc1 (configuration not stated)	-2	-1	0	-1	0.0	-6
O=C1CCCC2=C1C(Cc1ccccc1)C1=C(CCCC1=O)O2	3	3	2	5	0.3	-4
O=C(/C=C/c1ccc(S(=O)(=O)N2CCOCC2)cc1)NCc1ccccc1	-11	/	-21	-4	0.5	-6
CCOC(=O)C1Sc2[nH]c(=O)sc2C(c2ccc(Cl)cc2)C1C(=O)OCC (configuration not stated)	9	-5	16	-16	2.4	?
Cc1cc(C)cc(C(=O)NC(CC(N)=O)c2ccc(NC3CCCCCCC3)c([N+](=O)[O-])c2)c1 (configuration not stated)	23	2	33	-5	-0.6	-17
CC(=O)Nc1ccc(OCC(O)CN2C(C)CCCC2C)cc1 (configuration not stated)	18	7	2	7	-0.6	-16
COc1ccccc1P(=O)(c1ccccc1)c1ccc([N+](=O)[O-])cc1 (configuration not stated)	9	3	-7	5	0.9	1
C=CCOc1ccc(/C=N/NC(=O)C(=O)N2CCCCCC2)cc1OC	?	-24	10	-20	1.3	-2
CCCCC(CC)CNC(=O)CCS(=O)(=O)c1cccc2nonc12 (configuration not stated)	-2	-2	26	-3	3.5	-1
COc1cccc(C(=O)OCC(=O)c2ccc(Br)s2)c1OC	-7	3	7	12	0.7	-1
COC(=O)C1(C)Nc2ccccc2C(=O)N1c1ccccc1OC (configuration not stated)	6	2	-11	6	0.5	-2
O=C(CCn1c(=O)c2ccccc2n(CC(=O)N2CCN(c3ccccc3)CC2)c1=O)NCc1ccco1	12	7	-12	7	0.7	-3
CCCc1nnc(SCC(=O)Nc2nc(C)cs2)n1CCOC	1	-2	24	-1	1.0	-5
Cc1cc(NC(=O)CCC(=O)N(CC(=O)NCC2CCCO2)c2ccc(Cl)c(Cl)c2)no1 (configuration not stated)	4	-1	22	-1	-1.3	-1
Cc1ccc(OCCCC(=O)Nc2ccc(S(=O)(=O)Nc3cc(C)nc(C)n3)cc2)cc1	15	2	14	-10	0.0	-6
CC(C)c1ccc(CNCCCSc2ncccn2)cc1	-5	/	-2	13	-0.4	-62
COc1ccc(-c2[nH]ncc2CN(CCO)CC23CC4CC(CC(C4)C2)C3)c(OC)c1	5	-7	10	-4	1.3	-5
CSc1nnc(C)c(=O)n1COC(=O)c1ccc(S(=O)(=O)N2CCCC2)cc1	-11	0	-21	7	-0.2	-7
C=CCNC(=O)c1onc(CSc2ccc(OC)cc2)c1C(=O)O	3	4	15	-1	0.0	-12
COCCNC(=O)C1(C)CCCN(Cc2ccc3ccccc3c2Br)C1 (configuration not stated)	/	0	82	-2	-0.5	-4
COC(=O)c1ccc(NC(=S)N2CCN(Cc3cccc(C)c3)CC2)cc1	/	-9	0	-4	-0.2	-14
CCOC(=O)N1CCC(NC(=O)CS(=O)Cc2nc(-c3ccc(OC)c(OC)c3)oc2C)CC1 (configuration not stated)	-7	5	-13	-2	0.5	-10
CC(=O)Nc1ccc(S(=O)(=O)c2cc(O)ccc2O)cc1	3	-16	-15	6	0.8	10
O=C(/C=C/c1c(F)cccc1Cl)c1ccc(F)cc1	1	8	11	0	0.0	7
Cc1cc(C(=O)CN2CCC(C)CC2)c(C)n1-c1ccc(F)cc1	9	-7	-10	-3	1.4	-3
O=C(NC(=S)Nc1ncccn1)c1ccccc1Br	5	2	44	2	-0.1	-1
CCN(CC(=O)NCc1ccc(Cl)cc1)S(=O)(=O)c1ccc(NC(C)=O)cc1	1	/	-9	0	-0.1	-4
COc1cccc(C(C(=O)NC(C)(C)C)N(C(=O)CCC(=O)Nc2cc(C)on2)C2CC2)c1OC (configuration not stated)	3	9	5	-1	0.9	-11
O=S(=O)(c1ccc(Br)s1)N1CCN(CCOc2ccccc2)CC1	7	6	59	0	1.0	-28
O=C(Nc1cccc2ccccc12)c1ccc([N+](=O)[O-])o1	-29	/	34	-2	-0.9	8
C[C@H](CO)N1C[C@H](C)[C@@H](CN(C)C(=O)CCC(F)(F)F)OCc2cnnn2CCCC1=O	/	3	3	2	0.2	0
COc1ccc(Cn2c(=O)[nH]c3cc(C(=O)NCCCN4CCCCCC4)ccc3c2=O)cc1	-4	-4	-1	2	-1.1	-10

Taken from above.
`COC(=O)c1ccc(NC(=S)N2CCN(Cc3cccc(C)c3)CC2)cc1` in TRPML1 agonist has -0.2
`Cc1ccc(OCCCC(=O)Nc2ccc(S(=O)(=O)Nc3cc(C)nc(C)n3)cc2)cc1` in Six1-Eya2 inh has -10
`CCOC(=O)N1CCC(NC(=O)CS(=O)Cc2nc(-c3ccc(OC)c(OC)c3)oc2C)CC1` (configuration not stated) in TRPML1 blocker has -13

Returning to the listing; the 3 compounds before the break are reprinted first.
SMILES	TRPV1 PAM	CtBP-E1A blk	TRPML1 blocker	Six1-Eya2 inh	TRPML1 agonist	D2 potentiator
O=C(Nc1cccc2ccccc12)c1ccc([N+](=O)[O-])o1	-29	/	34	-2	-0.9	8
C[C@H](CO)N1C[C@H](C)[C@@H](CN(C)C(=O)CCC(F)(F)F)OCc2cnnn2CCCC1=O	/	3	3	2	0.2	0
COc1ccc(Cn2c(=O)[nH]c3cc(C(=O)NCCCN4CCCCCC4)ccc3c2=O)cc1	-4	-4	-1	2	-1.1	-10
COc1ccc([C@H]2CC(=O)C=C(c3ccc(C)cc3)C2)cc1OC	-7	-10	-1	-15	0.2	2
O=C(NCc1ccco1)C1(S(=O)(=O)c2ccc(Cl)cc2)CC1	-5	-5	4	-1	-0.2	0
Cc1nc(C(=O)N(C)C)nn1-c1cc(Cl)cc(Cl)c1	-8	4	-13	1	-1.1	-12
O=C(COc1cccc(F)c1)NNC(=O)Cc1ccc(S(=O)(=O)N2CCOCC2)s1	-4	0	-12	4	-0.5	-3
Cc1cc(Nc2ccccc2Br)n2nc(C)nc2n1	7	-7	7	2	-0.1	-6
CCn1c(O)c(N=NC(=O)CNC(=O)c2ccccc2F)c2ccccc21	16	2	-14	-1	-0.9	-31
CC(C)(C)NC(=O)C(c1ccc(O)cc1)N(Cc1ccco1)C(=O)Cn1nnc(-c2cccs2)n1 (configuration not stated)	?	4	-14	-8	0.2	2
COCCCn1cnc2c(c1=O)c1nc3ccccc3nc1n2-c1ccc(C)cc1	-4	-5	16	17	0.4	-5
COc1ccc(C(=O)OCC(=O)NCCCc2ccccc2)cc1OC	-19	/	-2	-16	-0.4	-8
O=C1NC[C@H](Cc2ccccc2)N(C[C@@H]2CCCN2C[C@H](Cc2ccccc2)N2C[C@H](Cc3ccccc3)N(CCc3ccccc3)C(=O)C2=O)C1=O	/	-26	-24	-5	3.2	-12
CCSc1nnc(-c2cc(Br)ccc2N)c(=O)[nH]1	1	-9	17	3	0.4	3
Cc1cccc(OC2CCN(Cc3nc(CC4CC4)no3)CC2)c1	-4	9	-3	10	1.4	-7
CN(C)S(=O)(=O)c1cccc(C(=O)Nc2cc(Cl)cc(Cl)c2)c1	-11	0	-24	1	-0.2	-7
O=C(C1CCCCC1)N1C[C@@H](O)[C@H](n2cc(-c3ccc(F)cc3)nn2)C[C@@H]1c1ccccc1	/	2	6	-5	2.0	-11
CCOc1ccc(OCCC(=O)OCC(=O)N2CCN(S(=O)(=O)c3ccc(C)cc3)CC2)cc1	-9	5	2	-4	4.5	3
Cc1cc(N/C(=N\S(=O)(=O)c2ccc(F)cc2F)c2ccccc2)no1	2	6	-19	4	1.9	5
COCCCNC(NC(=O)c1ccc(Cl)cc1)C(Cl)(Cl)Cl (configuration not stated)	-12	7	-6	7	-1.3	1
Nc1nccc(/C=C/c2c(Cl)cccc2Cl)n1	3	-2	19	3	0.5	-4
CC(C)c1cccc(OCCCCN(C)C)c1	-13	3	3	4	1.2	-19
COc1ccc(CNc2ncc(-c3ccc(Cl)cc3)n2C)c(OC)c1OC	-2	0	-7	1	1.3	-10

Profiles, quoted from the list. Order of values: TRPV1 PAM	CtBP-E1A blk	TRPML1 blocker	Six1-Eya2 inh	TRPML1 agonist	D2 potentiator
Results for COCCCNC(NC(=O)c1ccc(Cl)cc1)C(Cl)(Cl)Cl (configuration not stated) : -12	7	-6	7	-1.3	1
Results for CCOc1ccc(OCCC(=O)OCC(=O)N2CCN(S(=O)(=O)c3ccc(C)cc3)CC2)cc1 : -9	5	2	-4	4.5	3
Results for O=C(COc1cccc(F)c1)NNC(=O)Cc1ccc(S(=O)(=O)N2CCOCC2)s1 : -4	0	-12	4	-0.5	-3
Results for O=C(C1CCCCC1)N1C[C@@H](O)[C@H](n2cc(-c3ccc(F)cc3)nn2)C[C@@H]1c1ccccc1 : /	2	6	-5	2.0	-11

The results go on:
SMILES	TRPV1 PAM	CtBP-E1A blk	TRPML1 blocker	Six1-Eya2 inh	TRPML1 agonist	D2 potentiator
CCN1CCN(c2ccc(S(=O)(=O)N3CCCCC3)cc2NC(=O)c2cccc(C)c2)CC1	?	-4	7	0	-1.0	-17
COc1ccc(N(C(=O)c2ccncc2)S(=O)(=O)c2ccc(OC)c(OC)c2)cc1	7	-9	-21	1	0.7	-2
O=C(OCC(=O)c1c[nH]c2ccccc12)c1ccc(OC(F)F)cc1	/	-17	-6	5	1.6	-11
O=C(CCCN1C(=O)c2ccccc2C1=O)Nc1sc2c(c1C(=O)NCc1ccco1)CCC2	4	?	-6	-13	2.8	-8

An excerpt from above in order of molar mass, largest number first:
SMILES	TRPV1 PAM	CtBP-E1A blk	TRPML1 blocker	Six1-Eya2 inh	TRPML1 agonist	D2 potentiator
O=C(CCCN1C(=O)c2ccccc2C1=O)Nc1sc2c(c1C(=O)NCc1ccco1)CCC2	4	?	-6	-13	2.8	-8
O=C(OCC(=O)c1c[nH]c2ccccc12)c1ccc(OC(F)F)cc1	/	-17	-6	5	1.6	-11
CC(C)c1cccc(OCCCCN(C)C)c1	-13	3	3	4	1.2	-19
